Marburg entry: Marburg virus entry inhibition; Marburg virus pseudotype entry/binding inhibition, cell-based; control for the full effect not named in the record; many of its hits are not listed in these tables; Potency, µM (top dose mostly 49.2 µM), inactives show at the top dose activity change, negative = inhibition, hits mostly inhibitors; 18,000 tested, 6.5% active; AID 720532; active means well fitted inhibition curve with a large enough effect; inconclusive means small, poorly fitted or top-dose-only effect; inactive means no such curve, though single readings can be large or run the other way; tested in HEK293 cells; also: luciferase read-out
LASV entry inh: inhibitors of Lassa virus binding or entry into cells; Lassa virus pseudotyped entry inhibition, cell-based qHTS; control for the full effect not named in the record; many of its hits are not listed in these tables; Potency, µM (series often up to 49.2 µM), without a hit: at the top dose activity change, negative = inhibition, usual class: inhibitors; 18,000 tested, 4.1% active; AID 720533; active = well fitted inhibition curve with a large enough effect; inconclusive = small, poorly fitted or top-dose-only effect; inactive = no such curve, though single readings can be large or run the other way; tested in HEK293 cells; also: luciferase read-out
An asterisk follows results filed as active; u = inconclusive; & = joins results of further samples; [ ] = another dose, or the depositor's remark. % is scaled to controls: 0 for no effect and ±100 for the full control effect; potency is read from the fitted curve at half-maximal effect. Not a hit list; any-hit rate near 7.3%.

Compound,Marburg entry,LASV entry inh
CC(=O)OC1CCC2(C)C3CC(=O)C4(C)C(CC5OC6(CCC(C)CO6)C(C)C54)C3CC[C@H]2C1 (stereo partly specified),6%,-15%
C[C@@]12CCC(O)C[C@H]1CCc1ccccc12 (stereo partly specified),7%,0%
CCN(CCNC(=O)[C@H]1C=C(OC)C(=O)C[C@H](c2ccccc2)[C@@H]1C)C(C)=O,-18%[8.59 µM],3%[8.59 µM]
Cn1ccc2c(N3CCCCC3)cc3c(c21)C1CCC3C1 (stereo unspecified),1%,3%
CSCC[C@H](NC(=O)[C@H](Cc1c[nH]c2ccccc12)NC(=O)CNC(=O)[C@H](Cc1ccc(O)cc1)NC(=O)[C@H](C)NC(=O)[C@H](CCC(=O)O)NC(=O)[C@H](CCC(=O)O)NC(=O)[C@H](CCC(=O)O)NC(=O)[C@H](CCC(=O)O)NC(=O)[C@H](CCC(=O)O)NC(=O)[C@H](CC(C)C)NC(=O)[C@H](Cc1c[nH]c2ccccc12)NC(=O)[C@@H]1CCCN1C(=O)CNC(=O)[C@@H]1CCC(=O)N1)C(=O)N[C@@H](CC(=O)O)C(=O)N[C@@H](Cc1ccccc1)C(=O)NCC(=O)O,-13%,4%
CO[C@@H]1C=CO[C@]2(C)Oc3c(C)c(O)c4c(O)c(c(C=NN5CCN(C)CC5)c(O)c4c3C2=O)NC(=O)C(C)=CC=C[C@H](C)[C@H](O)[C@H](C)[C@H](O)[C@H](C)[C@H](OC(C)=O)[C@H]1C,18%[17.8 µM],-19%[17.8 µM]
COC(=O)C1=C(C)N(CC2CC2)C(=O)NC1c1ccccc1 (stereo unspecified),-5%[8.59 µM],1%[8.59 µM]
CC(CCN1CCCc2nc(C)c(C)cc21)=NO[C@H](C)CN1CCCc2nc(C)c(C)cc21,-41%[8.59 µM],-17%[8.59 µM]
Cc1ccccc1C1(CC(=O)N2CCOCC2)CC(=O)N(Cc2cccnc2)C1=O (stereo unspecified),-23%,-7%
FC(F)(F)c1ccccc1-c1ccc2ncnc(NC3CCNCC3)c2c1,11µM*,-19%
O=C(O)c1cc2cc(F)ccc2[nH]1,-1%,-4%
CC(=O)OC1CC(OC2C(O)CC(OC3C(O)CC(OC4CCC5(C)C(CCC6C5CC(O)C5(C)C(C7=CC(=O)OC7)CCC65O)C4)OC3C)OC2C)OC(C)C1OC1OC(CO)C(O)C(O)C1O (stereo unspecified),0.28µM*,0.32µM*
CCCCN(CCCC)Cc1cc(=O)oc2cc(C)c(Cl)cc12,-4%,34%
COc1oc(=O)c2cc(N)ccc2c1Cl,u,u
COc1ccccc1N1CCN(CC(O)COc2cccc3ccccc23)CC1 (stereo unspecified),-19%,-14%
CCCCCCCCCC(CC)c1ccc(S(=O)(=O)O)cc1 (stereo unspecified),27%[107 µM],u
Cn1c(SCc2ccccc2)nnc1C1CCCN(Cc2cccc3ncccc23)C1 (stereo unspecified),10%,-1%
CC(C)C(=O)N[C@H]1CCCN1C(=O)C=Cc1ccccc1,-22%[8.59 µM],13%[8.59 µM]
CC(=O)N(O)C/C=C/c1cccc(Oc2ccccc2)c1,12%,u
CN1CCN(c2cc3c(nn2)Oc2ccccc2N3C)CC1,23%,48%[activator]
CCOC(=O)C1=CN(CCc2cn(Cc3ccccc3)nn2)C(=O)NC1c1ccccc1 (stereo unspecified),-8%[8.59 µM],-1%[8.59 µM]
CC(=O)OCOC(c1ccc2ccccc2c1)P(=O)(OCOC(C)=O)OCOC(C)=O (stereo unspecified),9%,-1%
OCc1ccc(Cl)cc1Cl,18%,-19%
O=C(O)[C@H](CC(=O)N1C[C@H]2CCCC[C@H]2C1)Cc1ccccc1,9%,-12%
C=CCOC(=O)NC(c1ccc(F)c(F)c1)C(C(C)=O)C(=O)OC (stereo unspecified),-18%,-3%
CC[C@H](C)[C@H](NC(=O)[C@H](CC(C)C)NC(=O)[C@@H](N)CO)C(=O)NCC(=O)N[C@@H](CCCN=C(N)N)C(=O)N[C@@H](CC(C)C)C(=O)O,7%,-2%
N[C@@H](CSS(=O)(=O)O)C(=O)O,u,-3%&-21%&-2%
CCC(C)C(NC(=O)C(Cc1ccc(O)cc1)NC(=O)C(N)C(C)C)C(=O)NC(Cc1cnc[nH]1)C(=O)N1CCCC1C(=O)NC(Cc1ccccc1)C(=O)O (stereo unspecified),12%,2%
CC(=O)Oc1c(C)cc(OCC(O)CNC(C)C)c(C)c1C (stereo unspecified),-12%,-6%
O=C1CCCN1CC#CCN1CCCC1,-11%&9%&-3%,0%&3%&1%
CN[C@H]1[C@@H](O[C@@H]2[C@H](O[C@@H]3[C@@H](O)[C@@H](O)[C@@H](N=C(N)N)[C@@H](O)[C@@H]3N=C(N)N)O[C@H](C)[C@@]2(O)C=O)O[C@@H](CO)[C@@H](O)[C@H]1O,20%[17.8 µM],9%[17.8 µM]
CC(=O)Nc1c(I)c(C(=O)N[C@H]2C(O)O[C@H](CO)[C@@H](O)[C@@H]2O)c(I)c(N(C)C(C)=O)c1I (stereo partly specified),4%[17.8 µM],-4%[17.8 µM]
Cc1ccccc1C1(CC(=O)N2CCCC(C)C2)CC(=O)N(Cc2cccnc2)C1=O (stereo unspecified),8%,-8%
Cc1ncc2c(c1CNS(=O)(=O)N(C)C)CCN(C(=O)/C=C/c1ccccc1)C2,7%,-18%
Brc1ccc2c(c1)c1cc(Br)ccc1n2CC1CO1 (stereo unspecified),u,u
COC(=O)[C@@H]1CCCN1Cc1ccc2c(c1)CN(Cc1ccccc1F)CCO2,-8%,-18%
Cc1cc(C)cc(C(=O)OC2C[C@H]3CC[C@@H](C2)N3C)c1 (stereo partly specified),11µM*,u
Nc1c(S(=O)(=O)O)cc(Nc2ccc(Cl)cc2)c2c1C(=O)c1ccccc1C2=O,-10%,-23%
COc1ccc(NC(=O)N2CCc3nc(-c4ccc(OC)cc4C)c4c(c3C2)CO[C@@H](c2ccccc2)C4)cc1,u,4%[8.59 µM]
C[C@@]12CCC(OC(=O)c3ccccc3)CC1CCc1ccccc12 (stereo partly specified),9%,0%

More results follow:
canonical_smiles | Marburg entry | LASV entry inh
COc1cc(=O)n2c(c1C(=O)NCc1ccco1)CCN(Cc1cc3ccccc3[nH]1)CC2 | 8% | -8%
C#CCNC[C@@H]1CSCCS(=O)(=O)N1 | 7% | 4%
Cc1ccc(C(C)CCN2CCOc3ccc(CN4CCOCC4)cc3C2)o1 (stereo unspecified) | 4% | 6%
COCCN1C(=O)N[C@@H](c2cccc(C(F)(F)F)c2)[C@@H](C(=O)OC)[C@H]1C | -5%[8.59 µM] | -1%[8.59 µM]
COc1ccc(-c2nc(-c3ccccc3)oc2Nc2ccc3ccccc3c2)cc1 | 28% | 35%[activator]
COC(=O)/C(C)=C/CC12OC(C)(C)C3CC(C=C4C(=O)c5cc6c(c(CCC(C)(C)Cl)c5OC431)OC1(C)CCC(=C(C)C)C6C1)C2=O (stereo unspecified) | 7% | 2%
CCCCCC#CC[C@@H](O)/C=C/C=C/C=C\[C@@H](O)CCCC(=O)O | 1% | -5%
O=C(NCC1Cc2cccc(-c3cccnc3)c2O1)c1cc(-c2ccccc2)n[nH]1 (stereo unspecified) | u | -2%
Nc1ncnc2c1ncn2[C@H]1O[C@@H](CSCC[C@@H](N)C(=O)O)[C@H](O)[C@@H]1O | 11% | -8%
Cc1ccc(-c2cc(=O)c3ccccc3[nH]2)cc1 | 11%[107 µM] | 3%[107 µM]
COc1ccc2c(c1)-c1nc(-n3ncc(C(=O)NCc4cccnc4)c3C3CC3)ncc1CC2 | u | u
c1ccc(C(O[C@H]2CCCN(CCc3ccc4c(c3)OCO4)C2)c2ccccc2)cc1 | u | -4%
COc1ccc(N2C[C@H](CSC)[C@@H](CC(=O)Nc3ccc(Br)cc3)C2=O)cc1 | -10% | -22%
N[C@H](CCCP(=O)(O)O)C(=O)O | 11%&-3% | u
COC1C[C@@H](O[C@@H]2C(C)C(=O)OC(C)C(C)C(O)C(C)C(=O)[C@@]3(CO3)CC(C)C(OC3OC(C)CC(N(C)C)C3O)C2C)OC(C)[C@@H]1O (stereo partly specified) | 17% | 23%
O=C(NCc1ccc2c(c1)OCO2)O[C@@H]1C(=O)c2cc(Br)ccc2O[C@H]1c1ccc2c(c1)OCO2 | 39%[activator] | 2%
C/C(O)=C(/C#N)C(=O)Nc1cc(Br)ccc1Br | 7% | -11%
O=S1(=O)N[C@@H](Cc2ccccc2)COc2cccc(N3CCCC3)c21 | -5% | 9%
Cc1cc2c(c(=O)n1Cc1ccccc1)[C@H]1O[C@](CCCCN3C(=O)c4ccccc4C3=O)(Cc3c1ccc1ccccc31)O2 | -11%[8.59 µM] | 19%[8.59 µM]
CNC1C(O)C(O)C(CO)O[C@H]1OC1C(O[C@@H]2C(O)C(O)[C@@H](N=C(N)N)C(O)C2N=C(N)N)OC(C)[C@]1(O)C=O (stereo partly specified) | 3% | -2%
COc1cc(=O)n2c(c1C(=O)N(C)Cc1nccs1)CCN(Cc1ccc(Cl)cc1)CC2 | 5% | -17%
CC1(C)OC[C@@H]2O[C@@]3(C(=O)O)OC(C)(C)O[C@H]3[C@@H]2O1 | 11% | -2%
CC(=O)Nc1ccccc1-c1nc(CNC(=O)c2ccc(-c3ccccc3F)cc2)c(C)o1 | 0% | -15%
CO/N=C(\C(=O)N[C@@H]1C(=O)N2C(C(=O)O)=C(CSc3cnns3)CS[C@H]12)c1csc(N)n1 | 10% | -13%
CCCCCCCCCCCCCCCCSCC(COC)COP(=O)([O-])OCC[N+](C)(C)C (stereo unspecified) | u | u
O=c1cc(CN(Cc2ccccc2)Cc2ccccc2)c2c(ccc3ccccc32)o1 | -15% | 51%
CC(=Nc1ccccc1N)c1c(C)cc(=O)n(O)c1O | 3%&-26% | 10%&-4%
CCCCCCCc1cc2ccccc2c2c(C(=O)OC)cc(C(=O)OC)n12 | 25%[8.59 µM] | -12%[8.59 µM]
Cc1cccc(C)c1Nc1oc(-c2ccccc2)nc1-c1ccccc1F | u | u
Clc1ccc(C(c2ccc(Cl)cc2)C(Cl)(Cl)Cl)cc1 | -10%&-17% | -2%&-20%
COc1ccc(C(C)C(=O)c2ccc(O)cc2O)cc1 (stereo unspecified) | 0% | -4%
CCC(=O)OCC(=O)[C@@]1(OC(=O)CC)[C@@H](C)C[C@H]2[C@@H]3CCC4=CC(=O)C=C[C@]4(C)[C@@]3(F)[C@@H](O)C[C@@]21C | u | u
FC(F)(F)c1cccc(N2CCNCC2)c1 | 28µM* | 28µM*
C=CCCN1C(=O)NC(c2ccccc2)C(C(C)=O)=C1C (stereo unspecified) | 29%[8.59 µM] | -19%[8.59 µM]
CCC1(C2CCN(C(=O)c3cccc(F)c3F)CC2)NC(=O)N(CCc2scnc2C)C1=O (stereo unspecified) | 11% | -4%
Cc1cc(O)c(C=O)c(O)c1C(=O)O | -2% | 0%
COc1ccc2c(CN3CCCCCCC3)cc(=O)oc2c1 | 29% | 39%[activator]
CCOC(=O)C12CC1/C(=N\O)c1ccccc1O2 (stereo unspecified) | 18% | 6%
C#C[C@@H]1C=C[C@H](Oc2ccc(OC)cc2)[C@H](CO)O1 | 22%[8.59 µM] | 11%[8.59 µM]
CC12CC[C@@](C(=O)O)(C(=O)C1=O)C2(C)C | 1% | 1%
OC1(c2cccnc2)CCN(Cc2ccc3c(c2)CN(Cc2cc(F)cc(F)c2)CCO3)CC1 | u | -26%
COc1ccccc1[C@@H]1C(c2cccc(C)c2)=NN(c2ccccc2)[C@H]1C(=O)N1CCOC1=O | u | -25%
CN[C@H](CC(=O)O)C(=O)O | 8%&3% | 15%&-3%
COC(=O)CCN(Cc1cc(OC)ccc1OC)S(=O)(=O)c1ccccc1Br | 7% | 12%
CCCCCC/C=C1\CC(C(=O)OCC)Oc2ccccc21 (stereo unspecified) (tested in a mixture with another compound) | -3% | -7%
CC(C)[C@@H](CC(=O)N[C@@H]1CCCC[C@H]1C(=O)N[C@H](CC(=O)N[C@@H](CCC(=O)O)CC(=O)O)Cc1ccccc1)NC(=O)C[C@H](Cc1ccccc1)NC(=O)[C@@H]1CNCC[C@H]1N | 2% | -2%
CCO[C@H]1[C@H](NC(=O)c2cccnc2)c2ccccc2C12CCN(C(=O)c1ccoc1)CC2 | u | -15%
